Screens (PubChem)
UUG fidelity – alters start codon recognition fidelity in yeast. S. cerevisiae UUG-firefly luciferase reporter, luminescence/redox ratio. AID 602363. activity score, % at 18.7 µM. 350,000 tested, 0.13% active;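 active = replicate mean at a twofold rise or more, about +100% in these data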;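 also: firefly luciferase made from a UUG start codon reports start codon fidelity; reporter light over untreated wells divided by growth signal over untreated wells; some hits fall short of that in this replicate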
Rce1 inhib – inhibitors of yeast Ras-converting enzyme; calls only; Q03530; 290,000 tested, 0.27% active; yeast membranes, quenched prenylated peptide cleavage fluorescence;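 active = fall in fluorescence gain of 50% or more versus controls, with final raw signal at or below 3038400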;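 also: plate controls were neutral control wells for no effect and wells lacking membranes for full effect; tested at 10 µM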
PABP FP inh – PABP-poly(A) binding inhibition | PABP-poly(A) RNA binding, fluorescence polarization | P11940 | AID 2014 | inhibition, % at 35 µM | 290,000 tested, 1% active;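 active = 50% or more with normal probe brightness, or confirmed in later tests; about a fifth of its hits are not listed in these tables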;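 also: calls also rest on retests at 20 µM and on dose response follow-up; controls were probe without protein and protein plus probe with vehicle; some compounds called inactive have numbers as strong as hits; many hits fall short of the cut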
Target sequence (P11940 whole entry, looked up): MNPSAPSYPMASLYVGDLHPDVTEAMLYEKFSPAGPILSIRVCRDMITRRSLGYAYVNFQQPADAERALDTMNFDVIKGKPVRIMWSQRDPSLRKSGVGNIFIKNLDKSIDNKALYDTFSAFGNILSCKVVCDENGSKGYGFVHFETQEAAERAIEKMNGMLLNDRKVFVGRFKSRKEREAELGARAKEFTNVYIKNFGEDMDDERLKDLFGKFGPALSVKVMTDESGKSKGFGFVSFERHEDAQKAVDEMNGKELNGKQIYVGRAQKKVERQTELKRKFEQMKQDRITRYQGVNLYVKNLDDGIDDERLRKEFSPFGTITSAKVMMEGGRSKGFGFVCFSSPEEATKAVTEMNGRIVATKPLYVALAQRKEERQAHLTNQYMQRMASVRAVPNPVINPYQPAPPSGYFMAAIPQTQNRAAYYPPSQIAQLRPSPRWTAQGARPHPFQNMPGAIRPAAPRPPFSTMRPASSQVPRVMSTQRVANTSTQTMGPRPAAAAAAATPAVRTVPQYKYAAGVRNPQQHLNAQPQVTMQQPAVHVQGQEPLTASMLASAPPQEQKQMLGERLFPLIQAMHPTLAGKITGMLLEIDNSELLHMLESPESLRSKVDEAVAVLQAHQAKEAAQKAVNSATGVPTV
MT1-MMP act inh – blocks activation of human MT1-MMP; P50281; 360,000 tested, 0.061% active; HT1080 RFP-PRO-GFP cells, GFP/RFP ratio fluorescence, overnight; percent of plate control window, DMSO zero; GFP/RFP ratio change, % at 20 µM;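 active = GFP/RFP ratio change of at least 30% with cell ATP level not reduced by more than half and red fluorescence within 50% of control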; also: strong numbers were not always called active
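Compound: 20 µM single dose, 1% DMSO / System: HT1080 RFP-PRO-GFP cells / Controls: DMSO and RFP-L50D-GFP cell wells / Read-out basis: GFP/RFP fluorescence ratio / Schedule: overnight compound exposure at 37 °C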
HIV Env fusion – inhibitors of HIV Env-mediated cell fusion; AID 651610; inhibition, % at 12.3 µM; 360,000 tested, 1.1% active; HeLa-JRFL Env/CEM21 cell fusion, luciferase;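 active = mean replicate inhibition score of at least 50 and every replicate individually at or above 50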;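 also: 0% = plate neutral controls and 100% = maraviroc near 300 nM; one replicate is shown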
eIF4H FP inh – inhibitors of RNA binding by human eIF4H; Q15056; inhibition, % at 35 µM; AID 2012; 290,000 tested, 0.94% active; eIF4H fluorescence polarization binding assay;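 active = 50% or more with normal probe brightness, or confirmed in later tests; about a fifth of its hits are not listed in these tables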;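 also: calls also rest on retests at 20 µM and on dose response follow-up; 0% = protein and probe with vehicle and 100% = probe without protein; strong numbers were not always called active; many hits fall short of the cut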
CSC inhib – cancer stem cell inhibition; cancer stem cell-like cells viability, luminescence; 300,000 tested, 1.1% active; inhibition, % at 7.5 µM;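 active = mean at 75% or more and at least half the replicates too; tested in HMLE shEcad cells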;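 also: 0% = median of negative and 100% = median of positive control wells; the first replicate is given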
eIF4H FP inh retest – also measured in eIF4H FP inh; calls as there; inhibition, %; compound at 20 µM; confirmation average;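 mean of two retest wells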
PABP FP inh retest – also measured in PABP FP inh; calls as there; inhibition, %; compound at 20 µM; confirmation repeats;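 mean of two retest wells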
MT1-MMP act inh RFP – recorded beside MT1-MMP act inh, whose call it bears; RFP signal change, %; measured here: RFP expression control read;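 0 = vehicle wells; hits needed this value within 50% of zero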
* marks the source's active call; other numbers are inactive results; i = inactive; · = no result given; + = active, no number; & = joins results of further samples.

Sample of the layout, two compounds:
SMILES	UUG fidelity	Rce1 inhib	PABP FP inh	MT1-MMP act inh	MT1-MMP act inh RFP	HIV Env fusion	eIF4H FP inh	CSC inhib	others
CCC(C)(C)n1nnnc1CN1CCN(c2nc3ccc(C)cc3cc2C#N)CC1	·	i	6	2	1	1	1	-1
COc1ccc(CCNC(=O)COc2ccc([N+](=O)[O-])cc2)cc1	-11	i	12	1	2	-38	0	·

The list itself, from the start:
SMILES	UUG fidelity	Rce1 inhib	PABP FP inh	MT1-MMP act inh	MT1-MMP act inh RFP	HIV Env fusion	eIF4H FP inh	CSC inhib	others
CCC(C)(C)n1nnnc1CN1CCN(c2nc3ccc(C)cc3cc2C#N)CC1	·	i	6	2	1	1	1	-1
COc1ccc(CCNC(=O)COc2ccc([N+](=O)[O-])cc2)cc1	-11	i	12	1	2	-38	0	·
CC(=O)N1C=CN(C(C)=O)C(c2cn(C)c3ccccc23)C1c1cn(C)c2ccccc12 (centres undefined)	26	·	-3	-3	-3	·	1	-7
CCOC(=O)c1cc(C(O)(C(F)(F)F)C(F)(F)F)c(/N=C/N(C)C)o1	6	i	5	-3	-6	13	-11	-5
CCN(Cc1cc2ccccc2[nH]c1=O)C(=O)C(C)C	-13	i	2	2	-2	-10	-2	4
CCCSc1ccc([C@H]2N[C@@](CC(C)C)(C(=O)OC)[C@H]3C(=O)N(CC)C(=O)[C@@H]23)cc1	-14	·	·	0	1	4	·	·
COc1ccc(F)cc1-c1cc(NC=O)c2ncc(-c3cccc(C(=O)N(C)C)c3)n2c1	-1	·	·	-14	-7	15	·	·
O=C(O)C1CC(=O)N(Cc2ccc(F)cc2)C1 (centres undefined)	-9	·	2	0	3	·	2	2
Cc1cccc(C)c1NC(=O)CSc1nnc(NC(=O)c2ccccc2C(=O)O)s1	-10	i	52	-1	1	5	-4	-2	eIF4H FP inh retest=44;PABP FP inh retest=34
CS(=O)(=O)N(CC(=O)N1CCCC1)c1cccc(C(F)(F)F)c1	-4	·	·	-1	2	-22	·	·
O=C(COC(=O)c1ccccc1Cl)NCCC1=CCCCC1	·	i	2	-1	3	0	-8	-4
NC(=O)C1CN(C(=O)c2cccc(S(=O)(=O)N3CCc4ccccc43)c2)c2ccccc2O1 (centres undefined)	2	·	·	1	1	·	·	1
Cc1ccn2c(NCc3ccccc3)c(-c3cccc(SC4CCCCC4)c3)nc2c1	-39	·	·	3&2	-6&-10	4&18	·	99*
Cn1ccnc1COc1ccc(C=O)cc1	-9	i	2	1	1	0	-9	-7
CCOC(=O)C1CCN(CC(=O)Nc2c(C(=O)OC)[nH]c3cccc(Cl)c23)CC1	-21	i	2	1	-1	9	-3	1
Cc1c(N=C2SCC(=O)N2c2c(C)n(C)n(-c3ccccc3)c2=O)c(=O)n(-c2ccccc2)n1C	-25	i	2	10	5	-13	-3	-11
CCOC(=O)c1ccc(S(=O)(=O)NCCN(CC)CC)cc1	·	i	2	17	5	10	-14	12
Cn1c(=O)c2c(nc(CN3CCN(c4ccccc4F)CC3)n2CCN2CCOCC2)n(C)c1=O	-4	i	-5	0	7	2	-1	2
O=C(COC(=O)CCS(=O)(=O)c1ccc(Cl)cc1)Nc1ncc(Cl)cc1Cl	-2	i	13	·	·	·	13	-11
CC1=NN(C(=O)c2ccc(C)o2)C(O)(c2ccccc2)C1 (centres undefined)	-7	·	-6	1	8	-10	6	-7
COc1c(C)cc(S(=O)(=O)N2CCCC2)c(C)c1C	-12	i	-1	-4	-1	6	-2	-5
Cc1[nH]c2ccccc2c1C(=O)CN1CCCCC1CCO (centres undefined)	-27	i	6	-4	3	·	-2	-12
O=C1C(Cl)=C(NCCCN2CCOCC2)C(=O)c2ccccc21	3	·	·	5	4	19	·	·
Nc1cc(=O)[nH]c(SCCSc2ccccc2)n1	6	i	9	3	1	58*	-5	-2
CCC(c1nnnn1CS(=O)(=O)c1ccc(C)cc1)N1CCC(C(N)=O)CC1 (centres undefined)	-16	i	6	4	5	-3	4	7
CCCNC(=O)C1(C)CCCN(Cc2ccc(C(=O)OCC)o2)C1 (centres undefined)	-2	·	·	0	3	0	·	·
COc1ccc(CNCc2cccc(C)c2)cc1	5	i	14	0	1	2	2	-9
CCc1c(C)sc(NC(=S)N2CCN(C(=O)C3CCCO3)CC2)c1C(=O)OC (centres undefined)	-22	i	-2	2	1	·	-8	6
COc1cc(O)c(C(CC(=O)N2CCCC(C)C2)c2ccc(N(C)C)cc2)c(OC)c1 (centres undefined)	-4	i	8	5	2	-50	5	-2
Cc1ccc(C(=O)CCC(=O)Nc2ccc(C)cn2)cc1	-31	·	·	-7	1	2	·	-3
Cc1cc(C(=O)NC(C)CCC(C)C)c2ccccc2n1 (centres undefined)	·	i	6	-4	-3	7	-8	-16
CCn1c(SCC(=O)OC2CCCCC2)nnc1-c1ccncc1	-25	·	-3	2	0	-22	-4	10
CSc1nnc(SCC(=O)NC(=O)c2ccccc2)s1	-10	i	·	3	2	-15	·	-7
O=S(=O)(c1ccccc1)c1cnc(-c2ccccc2)nc1N1CCCC1	·	i	-4	-4	-11	-3	1	6
Cc1c(C#N)c(NC(=O)CCl)n(Cc2ccccc2)c1C	4	i	-4	-2	-8	-30	20	33
O=C(c1ccc(CN2CCc3ccccc3C2)cc1)N1CCN(c2ccc(F)cc2)CC1	-6	i	·	3	-8	·	·	·
Nc1nc2ccc(Cl)cc2c2nc(-c3ccco3)nn12	·	i	1	·	·	·	19	4
Cc1ccc(C)c(NC(=O)c2cccc(Oc3ccc([N+](=O)[O-])cc3Cl)c2)c1	·	i	7	8	-7	3	-3	50
CCCN(CCC)C(=O)C[n+]1cccc(/C=N/O)c1	·	i	-3	-2	4	6	-12	·
O=C(NC1CC2CCCC(C1)N2Cc1cccs1)c1ccc([N+](=O)[O-])cc1 (centres undefined)	·	i	-10	·	·	·	8	9
CCCCCC(=O)Nc1ccc(C2C(=O)c3ccccc3C2=O)cc1	-9	i	12	2	4	2	2	-15
Cc1nccn1C(c1ccccc1)c1ccccc1	4	i	·	-6	-4	1	·	2
COCCN(CC(=O)NCc1ccc(F)cc1)C(=O)CCC(=O)Nc1ccccn1	-17	i	1	1	3	·	5	8
O=C1NC(c2ccncc2)Nc2ccccc21 (centres undefined)	4	i	4	·	·	·	2	-11
COc1ccc(-c2cc(=O)oc3c(O)c(O)ccc23)cc1	20	i	8	-4	-8	22	4	63
C=CCOC(=O)C1=C(C)NC(SCC)=C(C#N)C1c1ccc(Cl)cc1 (centres undefined)	-17	i	3	-24	-21	·	-7	40
COc1ccc(/C(C)=N/NC(=S)Nc2cc(C)ccc2C)cc1	·	i	-22	·	·	19	8	25
CC(Cc1cccs1)NC(=S)Nc1ccccc1 (centres undefined)	-26	i	1	6	-3	-9	-13	-5
CCOc1ccc(NC(=O)CN(C)C(=O)c2c(C)nn(Cc3ccccc3Cl)c2C)cc1OCC	-25	·	·	1	1	8	·	·
COc1cccc2sc(N(CCN(C)C)C(=O)c3ccc4c(c3)CCCC4)nc12	3	i	0	4	4	5	-2	-1
CCN1CCSc2ccc(C(=O)Nc3ccc(NC(C)=O)cc3)cc21	-15	i	3	0	2	20	1	7
COc1cccc(C(=O)COC(=O)C(C)N2C(=O)C3C4C=CC(C4)C3C2=O)c1 (centres undefined)	-14	i	8	-2	3	·	-6	4
O=C(O)c1ccc2c(c1)C(=O)N(c1nccs1)C2=O	·	i	3	4	6	15	6	·
CCOC(=O)c1cn(Cc2ccccc2)c(C(=O)OC(C)(C)C)c1O	-15	i	·	-2	4	22	·	52
Cc1c(C(=O)NCCC#N)sc(=O)n1Cc1ccc(F)cc1	-25	·	·	4	8	-13	·	·
CSc1ccccc1OCc1cc(C(=O)N(C)C2CCCc3ccccc32)no1 (centres undefined)	-13	i	3	-6	-7	10	-10	16
COc1ccc(CCNC(=O)C(C)SCC(=O)Nc2ccc(F)cc2)cc1 (centres undefined)	-12	·	·	3	1	14	·	-8
CC(C)n1cc(CN2CCC(n3nccc3NC(=O)Cc3ccccc3)CC2)cn1	-8	i	6	-5	1	-5	8	-3
COc1cccc(C(=O)NN2C(=O)C3C4C=CC(O4)C3C2=O)c1 (centres undefined)	-15	i	-2	-4	1	·	-3	14
O=C(NCc1ccc2[nH]c3c(c2c1)CCCC3)c1ccc(S(=O)(=O)N2CCCCC2)cc1	-10	i	-3	-7	-4	·	17	-5

Nothing new here: 3 of the compounds above.
SMILES	UUG fidelity	Rce1 inhib	PABP FP inh	MT1-MMP act inh	MT1-MMP act inh RFP	HIV Env fusion	eIF4H FP inh	CSC inhib	others
CC1=NN(C(=O)c2ccc(C)o2)C(O)(c2ccccc2)C1 (centres undefined)	-7	·	-6	1	8	-10	6	-7
COc1c(C)cc(S(=O)(=O)N2CCCC2)c(C)c1C	-12	i	-1	-4	-1	6	-2	-5
Cc1[nH]c2ccccc2c1C(=O)CN1CCCCC1CCO (centres undefined)	-27	i	6	-4	3	·	-2	-12

(listing goes on)
SMILES	UUG fidelity	Rce1 inhib	PABP FP inh	MT1-MMP act inh	MT1-MMP act inh RFP	HIV Env fusion	eIF4H FP inh	CSC inhib	others
COCCNC(=O)CN1C(=O)CC(C)(C)S(=O)(=O)c2ccccc21	-17	i	1	1	1	-17	0	3
COc1cccc(N2CN(C3CCCCC3)CNC2=S)c1	-21	i	-13	1	-4	-9	-9	12
CCCCC(=O)NCCc1cc2c(C)ccc(C)c2[nH]c1=O	-17	i	·	3	7	-17	·	-6
Cn1c(Cn2c(=O)sc3ccccc32)nnc1SCC(=O)N1CCCc2ccccc21	-5	·	4	0	3	8	-4	-9
COc1ccc(-c2cn3c(C)c(C(=O)Nc4cc(NC(C)=O)ccc4OC)sc3n2)cc1	6	i	-1	-5	-6	-13	5	·
Cc1nn(CC(=O)Nc2ccc3c(c2)nc2n3CCN(C3CCCCC3)C2)c(=O)c2ccccc12	-8	i	-24	0	0	0	-8	-6
COc1ccc2c(c1OC)C(=O)N(c1ccccn1)C2	-16	i	5	-2	-1	·	-5	0
O=C(CCc1ccccc1)NNC(=O)c1ccc(Br)cc1	·	i	-4	-2	2	9	-3	-12
CN(C(=O)CSc1nc(-c2ccccc2)cn1N)C(c1ccccc1)c1ccccc1	-17	i	5	0	-2	36	6	-7
CCN(CC)c1ccc(C(=O)N2CCN(Cc3ccccc3)CC2)cc1	-17	i	4	2	1	20	0	9
COc1ccc([C@H]2CC(=O)C=C(c3cccc(CO)c3)C2)cc1	2	·	·	3	-6	5	·	8
N#Cc1ccccc1Oc1ccc(S(=O)(=O)N2CCCCC2)cn1	-15	·	·	8	-1	-164	·	4
Nc1ccc(S(=O)(=O)NCC(=O)OC2CCOC2=O)cc1[N+](=O)[O-] (centres undefined)	4	·	·	5	3	6	·	·
OC(c1ccc(Cl)c(F)c1)c1ncc(-c2cccc3ccccc23)[nH]1 (centres undefined)	-10	·	·	2	1	12	·	·
Cc1ccc(CNC(=O)CCCCCNc2nc(=S)[nH]c3ccccc23)cc1	·	i	-5	·	·	-3	-5	2
Cc1c(CC(=O)O)c(=O)oc2cc(OCc3ccc(Cl)cc3)ccc12	-18	i	13	4	4	-5	0	-9
CCOC(=O)c1nc2cc3n(c(C)c-2c1C)C(C)C(CC)=C3C (centres undefined)	-6	+	·	3	7	-94	·	40
COc1ccc(CNC(=O)C2CCCN2C)cc1OC (centres undefined)	-11	i	-8	-2	2	12	-8	-5
CCOC(=O)CSc1nnc(NC(=O)c2cccc([N+](=O)[O-])c2C)s1	·	i	3	2	4	·	3	-8
COCC(=O)O[C@]1(CCN(C)CCCc2nc3ccccc3[nH]2)CCc2cc(F)ccc2[C@@H]1C(C)C	4	i	19	-8	-4	-47	-2	20
O=C(COc1ccccc1Cl)Nc1ccc2c(c1)C(=O)NC2=O	-10	i	2	-2	1	-4	4	1
